Screens (PubChem)
CDC25B-CDK2 inh = primary biochemical HTRF screen for blockers of M-phase inducer phosphatase 2 binding to CDK2/cyclin A. P30305+P24941. HTRF CDC25B-CDK2/CyclinA binding, anti-His/anti-Flag; hits give high values. z-score (no concentration beside the values). 94,000 compounds, 0.72% hits;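 also: score is relative to mean and SD of negative controls; strong numbers were not always called active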
TAR Tat displ = TAR RNA-Tat peptide displacers, HIV-1, primary screen, biochemical, FRET, FAM/TAMRA-labeled Tat. HIV-1 TAR RNA, Tat peptide displacement FRET; hits give high values. z-score (no concentration beside the values). 100,000 compounds, 0.6% hits;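 also: score is relative to mean and SD of negative controls; some compounds called inactive have numbers as strong as hits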
* marks the source's active call; other numbers are inactive results; · = no result given.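 The calls were made as follows: active = z-score from 3 up in half or more of its runs; inactive = the rest.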 Not a hit list (roughly 0.89% active in at least one column).

SMILES | CDC25B-CDK2 inh | TAR Tat displ
Cc1c(C(=O)OCc2ccccc2)c2cc(NS(=O)(=O)N(C)C)ccc2n1S(=O)(=O)N(C)C | 0.1 | -1.4
COCc1nn2c(=O)c(NC(=O)c3ccc(C(C)(C)C)cc3)cnc2s1 | 0.03 | -0.53
CCN1CCCC1CNC(=O)c1ccc(C)c(NC(=O)C2=CSCCO2)c1 (stereo unspecified) | · | 1.3
O=C(C1CCCN(c2nc3ccccc3[nH]2)C1)N1CCOCC1 (stereo unspecified) | -1 | 0.39
CCSc1nc2ccc(NC(=O)c3ccccc3C(=O)N3CCOCC3)cc2s1 | -1 | ·
CCOc1c(Nc2cccc(SC)c2)c(=O)c1=O | · | 1.3
Cc1nn2c(N(C)C)cc(C(C)(C)C)nc2c1-c1ccc(F)cc1 | -0.9 | -0.17
O=C(NCc1ccco1)c1cnn2c(C(F)(F)F)cc(-c3ccc(Br)cc3)nc12 | · | 1.5
COc1ccc(OCC(=O)N2CCN(C(=O)CCC3CCCC3)CC2)cc1 | -0.29 | -0.37
CCOc1ccc(NS(=O)(=O)c2cc(-c3noc(C)n3)cs2)cc1 | · | 2.1
CNC(=O)COc1cc(CSc2ncccn2)ncc1OC | · | 0.48
CCCc1nn2c(=O)cc(COc3cccc(NS(C)(=O)=O)c3)nc2s1 | 2.1 | -0.13
CCOC(=O)N/N=C(\C)c1ccccc1-c1ccccc1/C(C)=N/NC(=O)OCC | -1.8 | ·
CCc1nn2c(=O)c(S(=O)(=O)Nc3ccc(C)cc3C)c(C)nc2s1 | -2 | 1.2
CC(=O)Nc1nc([N+](=O)[O-])c(SCC(=O)O)s1 | -0.83 | 2.2
O=C(Cn1c(NCCCO)nc2ccccc21)c1cccs1 | -0.51 | -0.5
CCCOc1ccc(C2C(C(=O)OC)=C(C)NC3=C2C(=O)CC(c2ccc(OC)cc2)C3)cc1 (stereo unspecified) | -1.7 | -0.52
COC(=O)c1ccc(C(=O)OC)c(NC(=O)CN2C(=O)c3ccccc3C2=O)c1 | -6.5 | ·
COc1ccc(OC)c(-c2noc(N3CCN(C4CCCCC4)CC3)n2)c1 | · | 0.01
O=C(NCCO)c1c(O)c2c([nH]c1=O)CCCC2 | · | 0.7
C1=CC2C(C1)C1CC2C2N=NN(c3ccccc3)C12 (stereo unspecified) | -0.89 | ·
CC1CC(C)CN(C(=O)C(=O)c2c[nH]c3ccccc23)C1 (stereo unspecified) | -1.2 | ·
COCCCN1C(=O)c2[nH]nc(-c3ccccc3O)c2C1c1ccc(OC)c(OC)c1 (stereo unspecified) | -0.63 | 1.9
C(=C\c1cc(/C=C/c2ccc3c(c2)OCO3)nc(-c2ccc3c(c2)OCO3)n1)/c1ccc2c(c1)OCO2 | -2.3 | ·

Compounds shown so far containing a halogen (2):
SMILES | CDC25B-CDK2 inh | TAR Tat displ
Cc1nn2c(N(C)C)cc(C(C)(C)C)nc2c1-c1ccc(F)cc1 | -0.9 | -0.17
O=C(NCc1ccco1)c1cnn2c(C(F)(F)F)cc(-c3ccc(Br)cc3)nc12 | · | 1.5

New compounds follow.
SMILES | CDC25B-CDK2 inh | TAR Tat displ
Cc1ccc(CSC2=NCN(C(C)(C)C)CN2)cc1 | -1.1 | ·
N#CC1=C2SCN(Cc3ccccc3)CN2C(=O)CC1c1cccs1 (stereo unspecified) | 5.2* | -0.52
Cc1c(Cl)cccc1N=Cc1ccc(N(C)C)cc1 | -0.86 | ·
Cc1ccc(CNC(=O)c2cc3c(s2)-c2cc(C)sc2CC3)o1 | · | 1.6
CC1Sc2ccc(S(=O)(=O)C(C)CC(=O)NCCC3=CCCCC3)cc2NC1=O (stereo unspecified) | · | -1.7
Cc1nc2c3ccccc3nc(N3CCN(c4cccc(Cl)c4)CC3)n2n1 | -0.24 | 0.59
CCc1ccc(C(=O)CC2(O)C(=O)Nc3ccc(Cl)cc32)cc1 (stereo unspecified) | -0.76 | -1.4
O=S(=O)(NCc1cccn1Cc1cccc(F)c1)c1ccc(Cl)cc1 | · | 2.7
COc1ccc(C(=O)NC(=O)Nc2cccc(C(F)(F)F)c2)cc1OC1CCCC1 | -2.7 | ·
O=C(Cn1c(=O)oc2ccccc21)Nc1nncs1 | -0.49 | -0.63
CC1CC(C)CN(S(=O)(=O)c2ccc3c(c2)CCC(=O)N3)C1 (stereo unspecified) | 2.8 | ·
Cc1cccc(CCNc2nc3ccccc3c3nc(-c4ccncc4)nn23)c1 | -2.9 | -0.78
O=c1c2cc(Cl)ccc2nc2ccc(N3CCCC3)nn12 | -2.2 | 2.8
COC(=O)c1cc(S(=O)(=O)N2CCC(N(C)C3CCCCC3)CC2)c[nH]1 | · | 0.07
Cc1cc(C)c2oc(C(=O)Nc3sc4c(c3C#N)CCCC4)cc(=O)c2c1 | -2 | 1.1
O=C(c1cnn2c(C(F)(F)F)cc(-c3ccco3)nc12)N1CCN(c2ccccc2)CC1 | 0.01 | -0.63
Cn1c(=O)c2c(-c3ccc(Cl)cc3)c(NCCc3ccccc3)oc2n(C)c1=O | · | 1.7
COc1cc(NC(=O)CSc2nncn3c2cc2occc23)cc(OC)c1 | · | -11
CCSc1ncc2c(=O)n(CC(=O)N3CCCCC3C)cnc2n1 (stereo unspecified) | · | 0.68
CN(C)c1ccc(NC(=O)CSc2nc3c(c(=O)[nH]2)CCC3)cc1 | -2 | 0.19
Cc1ccc(NC(=O)Nc2sc3nc4n(c(=O)c3c2C)CCC(C)CC4)c(C)c1 (stereo unspecified) | -3.8 | 0.78
COc1ccccc1C1C(C(=O)OCC2CCCO2)=C(C)NC2=C1C(=O)CCC2 (stereo unspecified) | -0.67 | -0.18
CCN(CC)S(=O)(=O)c1ccc2c(c1)N(CC(=O)N1C(C)CCCC1C)C(=O)CO2 (stereo unspecified) | -0.83 | ·
COc1ccc2cc(/C(C)=N/OC(=O)C(C)(C)C)ccc2c1 | -2 | ·
O=C1Cc2cc(S(=O)(=O)NCc3cccnc3)cc3c2N1CCC3 | · | 1.8
Cc1nnc(NC(=O)CSc2ccc(-c3sc(-c4ccccc4)nc3C)nn2)s1 | · | 1.2
N#CCS(=O)(=O)c1ccccn1 | -3.4 | ·
OC[C@H]1O[C@@H](n2cnc3cncnc32)[C@H](O)[C@@H]1O | -1.6 | ·
CC1=C(CCC(=O)O)c2cc3nc(cc4[nH]c(cc5[nH]c(cc1n2)c(C)c5C(C)O)c(C)c4C(C)O)C(C)=C3CCC(=O)O (stereo unspecified) | · | -0.58
COc1cn(CC(=O)Nc2cc(C)on2)c(CN2CCC(C)CC2)cc1=O | · | 0.67
O=C(Nc1onc2c1CCCC2)c1ccc(Cl)cc1 | 1.3 | 1.3
CC1=C(C(=O)OC2CCCCCC2)C2(O)C(=O)c3ccccc3C2(O)N1 (stereo unspecified) | -2.4 | ·
Cc1ccc(/C(O)=C2\C(=O)C(=O)N(CCC(=O)O)C2c2ccc(Br)cc2)cc1 (stereo unspecified) | 0.08 | ·
COCCCN(Cc1cccs1)C(=O)Cn1c(=O)oc2ccccc21 | · | -0.34
CC(C(=O)O)N1C(=O)CSC1=O (stereo unspecified) | -0.49 | -0.2
O=C(Cn1c(=O)c(C(F)(F)F)nc2ccccc21)Nc1cccnc1 | -2.2 | ·

Ordered by count of non-hydrogen atoms (smallest number first): part of the list above.
SMILES | CDC25B-CDK2 inh | TAR Tat displ
CC1CC(C)CN(S(=O)(=O)c2ccc3c(c2)CCC(=O)N3)C1 (stereo unspecified) | 2.8 | ·
CC1=C(C(=O)OC2CCCCCC2)C2(O)C(=O)c3ccccc3C2(O)N1 (stereo unspecified) | -2.4 | ·
Cc1nc2c3ccccc3nc(N3CCN(c4cccc(Cl)c4)CC3)n2n1 | -0.24 | 0.59
Cc1nnc(NC(=O)CSc2ccc(-c3sc(-c4ccccc4)nc3C)nn2)s1 | · | 1.2
COCCCN1C(=O)c2[nH]nc(-c3ccccc3O)c2C1c1ccc(OC)c(OC)c1 (stereo unspecified) | -0.63 | 1.9
Cc1c(C(=O)OCc2ccccc2)c2cc(NS(=O)(=O)N(C)C)ccc2n1S(=O)(=O)N(C)C | 0.1 | -1.4
C(=C\c1cc(/C=C/c2ccc3c(c2)OCO3)nc(-c2ccc3c(c2)OCO3)n1)/c1ccc2c(c1)OCO2 | -2.3 | ·

(next part)
SMILES | CDC25B-CDK2 inh | TAR Tat displ
C=CCOc1cccc(C2c3c(-c4cc(C)ccc4O)n[nH]c3C(=O)N2Cc2cccnc2)c1 (stereo unspecified) | -0.44 | -0.28
COc1ccc(-c2nn3c(Cc4ccc(Cl)cc4)nnc3s2)cc1OC | -1.1 | 1.5
O=C(c1nc2nc(-c3ccccc3)cc(C(F)(F)F)n2n1)N1CCOCC1 | -1.1 | 0.24
COc1cccc(-c2nc(-c3cc4cc(OC)ccc4[nH]c3=O)no2)c1 | 3.4 | 1.4
CNC(=O)c1c(NC(=O)Cc2coc3cc(C)cc(C)c23)sc2c1CCCC2 | -5.1 | -0.17
CCCN1CCN(C2CCCCC2NS(=O)(=O)c2ccc(Cl)cc2)CC1 (stereo unspecified) | -0.42 | 1.1
COc1cc2c(cc1NC(=O)CCOc1ccc(C)cc1)oc1ccccc12 | -11 | ·
COc1cccc(C2c3c(-c4ccccc4O)n[nH]c3C(=O)N2CCCO)c1 (stereo unspecified) | -0.25 | 0.22
COc1ccc(CCNS(=O)(=O)C2CCS(=O)(=O)C2)cc1OC (stereo unspecified) | -1.2 | -0.09
O=C(NCc1ccccc1Br)C1CCCN1c1nnc(N2CCCC2=O)s1 (stereo unspecified) | -2.5 | 2.6
CCSCCOC(=O)C1=C(C)NC2=C(C(=O)CC(c3cccs3)C2)C1c1ccc(C)o1 (stereo unspecified) | -1.6 | 1.8
Cc1cc(NC(=O)CSc2nnc(C)c(=O)[nH]2)no1 | -0.2 | ·
O=S(=O)(Nc1ccccc1Cl)c1cccc2cccnc12 | -0.61 | ·
COc1cc(CN2CCN(Cc3cccc4ccccc34)CC2)cc(OC)c1 | 1.3 | -0.57
Cc1[nH]nc(-c2ccc(S(=O)(=O)N3CCN(C)CC3)s2)c1C | · | 0.54
COc1ccccc1NC(=O)CSc1nnc(C)n2c1cc1oc(C)cc12 | · | 3.2
O=c1[nH]c(N2CCOCC2)nc2ncn(Cc3ccccc3)c12 | -1 | ·
COC(=O)c1c(-c2cccc3ccccc23)csc1N | 2.8 | ·
O=C(c1cc2c(s1)-c1ccc(Cl)cc1S(=O)(=O)C2)N1CCN(c2ccccc2)CC1 | -0.69 | 1.5
O=C(Oc1ccccc1F)c1cc(-c2ccc3c(c2)OCCO3)on1 | -0.49 | 0.48
O=C(CCC1=NS(=O)(=O)c2ccccc2N1)Nc1ccc(F)c(Cl)c1 | · | 0.73
CN1CCN(C(=O)c2oc3ccccc3c2NC(=O)c2ccc3c(c2)OCO3)CC1 | · | 3.5
CCc1nonc1NC(=O)C(C)Oc1ccccc1F (stereo unspecified) | -1.4 | -0.01
CN(C)/C=N/c1c(C#N)nnn1-c1cc(Cl)cc(Cl)c1 | -1.9 | ·
Nc1ccc2nonc2c1N | 0.6 | ·
Cc1nn(C(=O)CC2CCCCC2)c(C)c1S(=O)(=O)N1CCc2ccccc2C1 | · | -0.11
CCOC(=O)C1CCCN(C(=O)Cn2cc3c(n2)-c2c(oc(C(=O)N4CCCC4)c2C)CC3)C1 (stereo unspecified) | · | -0.12
O=C(Cn1c(=O)c2cccn2c2cccnc21)NC1CCCc2ccccc21 (stereo unspecified) | · | -0.02
C#CCn1c2ccccc2c2ccccc21 | 1.2 | 2.3
CN(CC(=O)NC1CCCCCCC1)S(=O)(=O)c1ccc2c(c1)c(=O)n(C)c(=O)n2C | -0.37 | ·
NCCCCN=C(N)N | -1.2 | 1.4
COc1ccc(OC)c2[nH]c(=O)c(CCNS(C)(=O)=O)cc12 | -2 | ·
CNC(=O)c1ccc2c(c1)N(C)C(=O)C1CCCCN21 (stereo unspecified) | · | 1.8
CN1CCN(C(=O)c2nc(CS(=O)(=O)c3ccccc3)no2)CC1 | · | 0.58
COc1ccc(-c2nnc3ccc(SCC(=O)OCc4ccccc4)nn23)cc1OC | -0.98 | ·
COc1ccc(C(O)(c2ccccc2)c2ccccc2)cc1 | -1.4 | 1.6
CCCOc1ccc(C2=NC(c3ccncc3)=Nc3ccc(OCC)cc3N2)cc1 | -0.79 | 0.81
CN(C1CCCCC1)S(C)(=O)=O | -0.8 | 1.2
CCN1CCN(c2nnc(-n3cccc3CNc3cc(C)cc(C)c3)s2)CC1 | · | 0.54
Cc1cccc(NC(c2ccsc2)c2ccc3ccc(C)nc3c2O)n1 (stereo unspecified) | -1.6 | ·
COC(=O)Nc1sc(C(=O)N(C)C)c(C)c1C(=O)OC | -0.33 | 1.8
COC(=O)c1ccc([C@@H]2Nc3c(cccc3C(F)(F)F)[C@@H]3C=CC[C@@H]32)cc1 | -2.6 | ·
O=C(Nc1ccc(Cl)cc1)c1ccc(-c2cccs2)s1 | -0.79 | ·
COCCOC(=O)C1=C(C)NC2=C(C(=O)CCC2)C1c1ccc(C)s1 (stereo unspecified) | -1.8 | 0.99
O=C(N1CCOCC1)N1CCN(c2ccccc2F)CC1 | -0.36 | -0.56
CC(=O)N1c2ccc(S(=O)(=O)N3CCCCC3)cc2CC1C(=O)NCCN1CCCC1 (stereo unspecified) | · | 0.78
CSCCc1nc(SCC(=O)Nc2nnc(C)s2)[nH]c1C | -2.4 | ·
Cc1ccc(S(=O)(=O)C(CC(=O)c2ccco2)c2ccc(Cl)cc2)cc1 (stereo unspecified) | -1.5 | -0.02
Cc1nc(-c2nnc(NC(=O)c3ccc4c(c3)OCO4)o2)c(C)s1 | -1.6 | 0.55
COc1ccc(S(=O)(=O)Nc2cccc(-c3ncon3)c2)cc1OC | -1.9 | ·
Cc1cc(-c2ccc(C)c(S(=O)(=O)Nc3ccc(S(N)(=O)=O)cc3)c2)on1 | · | 0.4
CCn1c(SCC(N)=O)nnc1-c1ccc2c(c1)OCO2 | -1.3 | 1.6
CN(CCc1ccccn1)Cc1ccccc1F | -0.88 | 0.81
